# Compound activity (PubChem BioAssay)
# UCH37 inh = inhibitors of human UCH37 deubiquitinase, primary screen, biochemical, Ub-AMC cleavage, fluorescence; inhibition, % (concentration not given with the values); AID 588478, 2011; purified proteasome/UCH37; 330,000 compounds, 0.33% hits;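 active means mean of two replicates above 20%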;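 further: 0% = compound-free wells with enzyme and 100% = wells lacking proteasome; stock transfer was 100 nL into about 20 µL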
# Target sequence (Q9Y5K5 whole entry, looked up): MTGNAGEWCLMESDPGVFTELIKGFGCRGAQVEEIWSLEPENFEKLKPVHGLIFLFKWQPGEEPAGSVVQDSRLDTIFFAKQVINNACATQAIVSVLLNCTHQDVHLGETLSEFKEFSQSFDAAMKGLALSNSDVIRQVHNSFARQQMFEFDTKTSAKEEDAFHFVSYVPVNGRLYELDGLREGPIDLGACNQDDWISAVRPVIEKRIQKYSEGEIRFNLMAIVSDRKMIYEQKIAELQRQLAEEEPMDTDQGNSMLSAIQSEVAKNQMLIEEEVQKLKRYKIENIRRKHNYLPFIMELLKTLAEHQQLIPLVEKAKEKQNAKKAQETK
#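 Assay system: Proteasome-bound UCH37. Buffer or medium: pH 7.4 Tris-HCl (50 mM) with ovalbumin, ATP-MgCl2, DTT. Incubation: 30 min preincubation with enzyme, 25 min cleavage at room temperature. Measured by: fluorescence, ex 355 nm, em 460 nm. Read-out basis: percent inhibition. Control set: wells without proteasome as full block, compound-free enzyme plus substrate as uninhibited.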
# AF4-AF9 inh = inhibitors of AF4 peptide binding to AF9, primary screen, biochemical, AlphaScreen, biotin-AF4 peptide, FLAG-AF9, single point. Protein AF-9 (Homo sapiens), P42568. inhibition, % at 10 µM. 350,000 compounds, 0.47% hits. AID 651704, 2012;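 active means every replicate reaching a set inhibition limit, whatever the replicate mean, cut at about 25% in these data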;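 further: 0% = plate neutral control median and 100% = total signal loss; the record names both 10 and 1 µM as test concentration; the first replicate is given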
# Target sequence (P42568 whole entry, looked up): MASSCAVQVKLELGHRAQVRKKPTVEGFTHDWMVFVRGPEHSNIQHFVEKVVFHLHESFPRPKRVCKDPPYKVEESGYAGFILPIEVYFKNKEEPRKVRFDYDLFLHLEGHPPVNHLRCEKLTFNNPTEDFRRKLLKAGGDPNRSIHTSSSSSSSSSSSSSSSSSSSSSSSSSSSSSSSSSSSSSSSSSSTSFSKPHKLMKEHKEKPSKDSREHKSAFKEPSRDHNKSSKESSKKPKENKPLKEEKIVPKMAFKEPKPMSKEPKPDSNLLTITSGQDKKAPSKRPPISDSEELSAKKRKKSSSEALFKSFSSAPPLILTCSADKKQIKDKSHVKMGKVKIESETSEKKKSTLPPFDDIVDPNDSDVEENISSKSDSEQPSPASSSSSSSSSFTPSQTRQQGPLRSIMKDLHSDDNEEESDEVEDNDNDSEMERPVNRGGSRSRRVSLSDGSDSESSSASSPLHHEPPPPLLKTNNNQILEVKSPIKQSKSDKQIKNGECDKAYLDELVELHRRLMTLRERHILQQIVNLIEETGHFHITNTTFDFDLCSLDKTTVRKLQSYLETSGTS
# A1 inh = caspase 3/7 activation in MEF A1-2A-BIM cells, primary screen, A1 inhibitor project, cell-based, luminescence, HTS. Caspase-Glo 3/7 luminescence, 3 h; percent of clofoctol response, vehicle zero. caspase activation, % (concentration not given with the values). 330,000 compounds, 0.066% hits. AID 2462, 2010;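 active means over half of replicate activation scores above 10%, or exactly half above 10 with the replicate mean above 10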;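 further: wells of about 30 µL received 50 nL stock; many hits fall short of the cut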
# FGF22 binding = binders of human FGF22 protein, primary screen, FGF22 synaptogenesis inhibitor project, biophysical, thermal shift, single point. recombinant FGF22 thermal shift, SYPRO orange fluorescence; percent of sucrose octasulfate shift, DMSO zero. calls only at 9.99 µM. 340,000 compounds, 1.5% hits;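 active means melting point raised past a set limit in the mean and every replicate; three in four hits are not shown here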
# Target sequence (Q9HCT0 whole entry, looked up): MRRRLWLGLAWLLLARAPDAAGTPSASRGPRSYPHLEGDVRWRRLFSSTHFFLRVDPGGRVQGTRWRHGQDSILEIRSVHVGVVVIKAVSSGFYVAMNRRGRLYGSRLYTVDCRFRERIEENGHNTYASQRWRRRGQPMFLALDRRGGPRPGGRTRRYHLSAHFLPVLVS
# rRNA inh HTS = reduced GFP signal of wild-type E. coli, primary screen, bacterial rRNA inhibitor project, GFP/RFP fluorescence, OD600, single point; AID 720706, 2013; E. coli WT GFP vs humanized-ribosome RFP mutants, 24 h; hits give low values; DMSO median 0, no signal -100; 350,000 compounds, 1.6% hits; GFP signal change (wild-type ribosome), % (test concentration not listed);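 active means significant combined selectivity score with lowered wild-type GFP, culture density cut under 30%, mutant RFP and density less affected; inactive means any of these conditions unmet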; further: one replicate is shown; some compounds called inactive have numbers as strong as hits
# Beta apoptosis = inhibitors of cytokine-induced beta cell apoptosis, primary screen, luminescence; INS-1E cytokine-induced death, ATP luminescence, 48 h; percent of positive-control rescue, neutral wells zero; 300,000 compounds, 0.8% hits; protection from apoptosis, % (no concentration beside the values);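 active means all replicates at 75% or more, or half of them and the mean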;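 further: 0% = cytokine-treated negative control wells and 100% = positive control rescue; higher means more ATP so stronger rescue from cytokine killing; wells of about 40 µL received 100 nL stock; the first replicate is given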
# Ecoli growth = E. coli growth inhibition, primary screen, OD600 | OD600 absorbance (no concentration beside the values) | AID 1053175, 2014 | 330,000 compounds, 0.21% hits | Escherichia coli growth, 23 h; hits give low values;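 active means OD600 absorbance below the run mean of sample wells minus 3.6 SD, in any replicate, cut at about 0.56 in these data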;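 further: stock transfer was 300 nL into about 60 µL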
# T cruzi inh = inhibitors of intracellular T. cruzi growth, primary screen, luminescence, NIH3T3 host cells; T. cruzi beta-gal in NIH3T3, 90 h; inhibition, % (test concentration not listed); 300,000 compounds, 1.4% hits; AID 1885, 2009;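 active means mean inhibition across valid replicates above about 55%, limit read from the data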;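 further: signal also drops with host cell toxicity which is not excluded here; 0% = plate median of DMSO wells and 100% = zero luminescence signal; higher percent means less beta-gal luminescence so fewer parasites; stock transfer was 50 nL into about 50 µL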
# rRNA inh HTS OD600 = recorded beside rRNA inh HTS, whose call it bears; OD600 change, %; measured here: OD600 growth;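 optical density of the mix in the first replicate; 0 = DMSO median and -100 = no signal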
# rRNA inh HTS RFP = recorded beside rRNA inh HTS, whose call it bears; RFP signal change, %; measured here: RFP humanized mutant strains;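 first replicate; 0 = DMSO median and -100 = no signal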
# Starred values were filed as active, the others as inactive; i = inactive; . = not tested or not shown; & = joins results of further samples.
# Start of the data: the first 3 compounds, to show the layout:
Structure	UCH37 inh	AF4-AF9 inh	A1 inh	FGF22 binding	rRNA inh HTS	rRNA inh HTS OD600	rRNA inh HTS RFP	Beta apoptosis	Ecoli growth	T cruzi inh
O=C1CCCc2nc3c(cc21)C(O)Oc1ccccc1-3 (centres undefined)	-203.2	-1.0	1.6	i	-7.1	-8.1	-1.5	0.8	0.723	-21.1
COc1ccc(NC2CCCN(C(=O)c3cccnc3SC)C2)cc1OC (centres undefined)	4.3	4.3	-0.7	i	10.1	9.8	-1.0	-4.2	0.663	-1.8
CN1CCN(C(=O)CC2C(=O)NCCN2Cc2ccc(-c3ccccc3)cc2)CC1 (centres undefined)	-1.1	1.2	-1.3	.	8.4	4.4	-0.4	-0.1	0.7	-2.1

# This part in full, repeating the preview:
Structure	UCH37 inh	AF4-AF9 inh	A1 inh	FGF22 binding	rRNA inh HTS	rRNA inh HTS OD600	rRNA inh HTS RFP	Beta apoptosis	Ecoli growth	T cruzi inh
O=C1CCCc2nc3c(cc21)C(O)Oc1ccccc1-3 (centres undefined)	-203.2	-1.0	1.6	i	-7.1	-8.1	-1.5	0.8	0.723	-21.1
COc1ccc(NC2CCCN(C(=O)c3cccnc3SC)C2)cc1OC (centres undefined)	4.3	4.3	-0.7	i	10.1	9.8	-1.0	-4.2	0.663	-1.8
CN1CCN(C(=O)CC2C(=O)NCCN2Cc2ccc(-c3ccccc3)cc2)CC1 (centres undefined)	-1.1	1.2	-1.3	.	8.4	4.4	-0.4	-0.1	0.7	-2.1
CCN(CCO)c1cc(Cl)nc(SC)n1	2.3	.	-0.1	.	.	.	.	-8.4	0.711	-6.0
Cc1c(Cl)cccc1NC(=S)NN	0.1	-1.2	0.7	i	5.2	3.4	0.9	1.7	0.648	-1.6
COc1cccc(NC(=O)c2ccn(C)n2)c1	0.3	.	-6.4	.	.	.	.	0.7	0.697	-15.7
CCOP(=O)(c1ccc(N(C)C)cc1)C(O)c1ccc(OC)cc1 (centres undefined)	3.5	-2.3	-0.4	i	-1.1	-0.1	0.4	-1.4	0.648	-20.5
Cn1c(=O)[nH]c(=O)c2c1nc(Br)n2C/C=N/Nc1ccccc1	.	2.1	-0.5	i	15.7	1.9	-1.7	-1.7	.	1.8
O=C(/C=C\c1cn(-c2ccccc2)nc1-c1ccccc1)Nc1nccs1	-138.0	.	-1.0	.	.	.	.	47.7	0.706	7.8
Cc1ccc(S(=O)(=O)/N=C(/Nc2c(C)n(C)n(-c3ccccc3)c2=O)c2ccc(Cl)cc2)cc1	-1.8	.	0.1	.	.	.	.	-6.2	0.739	4.0
C/C(CC(=O)Nc1cccnc1)=N\NC(=O)c1ccc([N+](=O)[O-])c(Cl)c1	.	3.4	0.1	i	5.4	10.3	-0.9	-2.1	.	-20.0
COc1ccc(NC(C)=O)cc1S(=O)(=O)NC(Cc1ccccc1)C(=O)NCc1ccccc1C (centres undefined)	3.2	1.2	0.2	i	-0.2	-11.1	2.4	-0.9	0.7	-7.3
O=C(Cn1ccc(=O)[nH]c1=O)Nc1ccc(C(=O)O)c(O)c1	.	-4.4	0.3	i	12.6	9.3	2.2	-0.6	.	-8.2
Cc1cccc(NC2=NC(C)(C)N=C(N)N2)c1C	0.2	.	0.0	.	.	.	.	0.4	0.768	3.8
CCOC(=O)CCCCC(=O)c1[nH]c(=O)[nH]c1C[n+]1ccc(C)cc1	4.0	7.8	-0.1	i	13.8	13.2	2.7	-5.6	0.683	-2.5
O=C(COc1ccccc1)NCC(=O)N1CCCC(C(F)(F)F)C1 (centres undefined)	1.5	-11.9	.	i	7.4	7.4	1.1	.	0.677	.
COc1cccc(NC(=O)c2cnc[nH]2)c1	3.3	0.9	-1.2	i	8.1	5.2	-0.5	3.5	0.656	-23.5
CN(C(=O)c1ccc(S(=O)(=O)N2CCCCC2)cc1)C1CCS(=O)(=O)C1 (centres undefined)	-0.7	0.8	-0.2	i	-0.7	-1.2	-0.4	-2.2	0.634	2.2
COc1ccc(-c2nc3ncccn3c2Br)cc1	-227.9	0.4	0.5	i	-11.0	-10.2	-0.6	2.0	0.682	2.0
COc1ccc(S(=O)(=O)Nc2ccc(Nc3ccccc3)cc2)cc1	5.6	5.2	0.6	i	.	.	.	-2.9	0.644	17.4
CC1CCC(NC(=O)COC(=O)CCC(=O)c2ccc(Cl)s2)CC1 (centres undefined)	-3.0	4.2	0.1	i	4.7	5.3	2.1	.	0.614	-1.3
O=C(O)c1ccc(/C=N\Nc2ccc(S(=O)(=O)N3CCOCC3)cc2[N+](=O)[O-])cc1	.	-12.4	0.1	i	-1.3	0.8	0.2	-3.2	.	-5.8
COc1ccc(S(=O)(=O)Nc2ccc(C)cc2)cc1OC	4.1	.	-0.4	.	.	.	.	-5.1	0.729	4.2
CCC(Oc1ccccc1)C(=O)Nc1cc(Cl)ccc1-n1cncn1 (centres undefined)	2.8	-24.4	1.0	i	-10.0	-18.4	-1.7	-1.7	0.706	-4.8
Cc1cccc(-c2noc(CNS(=O)(=O)c3ccccc3)n2)c1	4.3	-0.8	0.6	i	-7.3	-12.8	1.5	-3.7	0.623	6.9
CCCCn1c(N)c(N(CCOC)C(=O)c2ccc(-c3cccc(C(F)(F)F)c3)o2)c(=O)[nH]c1=O	-7.8	-8.7	1.0	i	5.5	0.4	-2.1	0.2	0.65	2.6
CC(=O)N1N=C(c2ccncc2)OC12CCCC2	-27.8	.	-0.9	.	.	.	.	2.0	0.701	-5.2
CCC(=O)Nc1nnc(S(=O)(=O)N2c3ccccc3CC2C)s1 (centres undefined)	4.9	-2.0	-0.5	i	6.2	14.0	3.8	6.8	0.738	14.9
CC1CCN(C(=O)c2ccc3c(Cl)c4c(nc3c2)CCCC4)CC1	-0.2	-3.8	1.4	i	-12.5	-14.3	0.4	0.1	0.697	-47.7
CC(=O)c1cc2c(cc1NC(=O)c1cccc(S(=O)(=O)N3CCN(C)CC3)c1)OCO2	-12.5	-8.8	0.4	i	1.7	-1.9	-1.2	14.0	0.718	14.3
O=C(NC1CC1)C1=C[C@H](c2csc3ccccc23)C[C@H](OCc2ccc(CO)cc2)O1	4.7	-0.4&-2.4	0.7	i	-3.6	-5.6	-5.3	-0.7	.	12.9
COc1cc(OC)c2c(-c3cccc(-c4ccoc4)c3)cc(=O)oc2c1	-0.4	4.4	.	i	-13.5	-11.3	4.2	.	0.701	.
O=C(COC(=O)CCC(=O)c1cccs1)NC1CC1	-1.4	-2.7	-0.1	i	-6.8	-10.2	1.5	-8.1	0.734	-16.2
COc1ccc(C(=O)n2nc(-c3ccccc3)nc2N)cc1OC	1.9	.	0.2	.	.	.	.	-0.4	0.781	.
COc1cccc(/C=C(/C#N)c2nc3ccccc3[nH]2)c1OC(C)C(=O)O (centres undefined)	-4.1	-3.0	0.1	i	7.0	4.6	0.2	-5.9	0.681	-6.0
CCc1ccc(NC(=O)[C@@H](NC(=O)[C@@H]2Cc3ccccc3CN2)C(C)CC)cc1 (some centres undefined)	0.7	2.4	-0.2	i	-2.1	-0.2	2.4	10.4	0.73	-2.4
O=C(C1CCN(S(=O)(=O)c2ccc(Cl)cc2)CC1)N1CCN(c2ccccn2)CC1	-4.2	0.2	0.0	i	.	.	.	2.8	0.726	.
COc1ccc(NC(=O)COc2ccc3c(c2)CCC3)cc1	1.4	-4.3	0.7	i	-11.4	6.7	-1.3	-0.1	0.632	-12.3
COc1ccc(C2=CC(=O)N(Nc3ccccc3)C2=O)cc1	1.1	1.1	-0.6	.	16.8	18.9	3.0	-21.0	0.653	-33.2
Cc1ccc2oc(-c3cccc(NC(=O)c4ccccn4)c3)nc2c1	.	-2.2	0.6	i	21.2	10.6	6.5	-5.7	.	-5.1
COC(=O)CSc1nnc(-c2ccc3c(c2)OCO3)n1C	3.3	.	-0.5	.	.	.	.	-0.4	0.721	6.0
Cc1cc(C)nc(Nc2ncn[nH]2)n1	0.3	.	0.7	.	.	.	.	-2.6	0.697	-18.8
O=[N+]([O-])c1cc([N+](=O)[O-])c2nonc2c1Nc1ccccc1O	13.2	3.5	-0.5	i	-2.3	1.3	-0.2	-9.0	0.661	-8.6
O=C(CSc1n[nH]c(-c2ccc(Cl)cc2Cl)n1)Nc1ccccn1	6.1	.	-1.4	.	.	.	.	-7.1	0.741	-0.5
COCCCNC(=O)CNC(=S)N(Cc1ccc(F)cc1)C1CCCCC1	1.2	.	1.7	.	.	.	.	-5.1	0.669	-8.2
CCc1nnc(NC(=O)c2ccc(S(=O)(=O)N(CCOC)CCOC)cc2)s1	3.2	-27.5	0.0	i	-0.7	-0.2	4.3	-1.9	0.758	-12.6
CC(=O)Nc1ccc(NC(=O)CN(c2cccc(C(C)=O)c2)S(C)(=O)=O)cc1	3.5	-0.3	0.2	.	6.2	1.0	-1.8	5.8	0.661	2.1
COc1ccc2cc3cc(C(=O)NCc4ccccn4)oc3nc2c1	i	.	-0.3	.	.	.	.	-0.7	0.738	4.0
Cc1ccc(CNC(=O)CS(=O)Cc2nc(-c3ccccc3F)oc2C)cc1 (centres undefined)	1.2	-1.8	-0.9	i	-4.8	-14.9	0.6	-2.1	0.68	19.4
Fc1ccccc1C1c2cccn2CCN1C(=S)Nc1ccc(Br)cc1 (centres undefined)	0.6	4.0	0.9	i	-48.5	-74.5	-6.1	-10.8	0.683	3.2
CS(=O)(=O)Cc1ccc(C(=O)NC2CCN(Cc3ccccc3)C2)cc1 (centres undefined)	5.0	1.1	0.3	i	4.7	9.8	1.7	-1.6	0.682	7.9
CCC(=O)Oc1ccc(-c2nc(-c3cccnc3)no2)cc1	1.6	.	-8.4	.	.	.	.	1.8	0.682	-2.0
CC12CC3CC(C)(C1)CC(Nc1nc(N4CCOCC4)nc4ccccc14)(C3)C2	-41.9	-14.8	-0.2	i	6.2	4.7	0.0	33.8	0.693	23.1
COc1cccc(OC)c1OCCOCCN1CCN(C)CC1	2.8	-0.9	-0.7	i	9.0	21.5	-1.9	-2.1	0.67	-1.4
O=C(COC(=O)CCCNC(=O)c1ccc(Cl)cc1)Nc1ccc(Br)cc1	2.5	.	-0.4	.	.	.	.	-5.0	0.715	-15.7
CNC(=O)CSc1nccn1Cc1ccc(Cl)cc1	3.6	-2.3	0.7	i	2.1	-5.0	2.7	.	0.698	-23.0
Cc1ccc(S(=O)(=O)CCC(=O)Nc2ccccc2Cl)cc1	4.6	-0.8	0.2	i	5.3	1.9	1.5	.	0.685	-11.5

# A portion of the library, so the mix of outcomes need not match the whole.
